Cruzain inh noDet – inhibitors of Trypanosoma cruzi cruzain without detergent; purified cruzain, Z-FR-AMC fluorescence, no detergent; Potency, µM, inactives show max response, negative = inhibition, actives largely listed as inhibitors; hit rate 2.3% among 200,000;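 note: plate controls were enzyme without inhibitor for no effect and buffer without enzyme for full effect; nearly all actives have a fitted effect of over 40% in size; top concentration of the series not given in the record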
Target sequence (P25779 123-467 limits assumed): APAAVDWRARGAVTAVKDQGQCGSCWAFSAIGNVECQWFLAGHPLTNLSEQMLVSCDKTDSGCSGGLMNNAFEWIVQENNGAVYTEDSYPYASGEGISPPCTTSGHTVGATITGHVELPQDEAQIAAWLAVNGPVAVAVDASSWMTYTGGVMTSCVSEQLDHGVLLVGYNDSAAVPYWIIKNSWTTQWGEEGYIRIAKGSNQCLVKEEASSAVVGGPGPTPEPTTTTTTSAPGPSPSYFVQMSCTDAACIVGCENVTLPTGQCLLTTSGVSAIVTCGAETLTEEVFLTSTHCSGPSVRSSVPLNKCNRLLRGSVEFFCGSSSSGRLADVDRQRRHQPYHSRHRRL
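Detergent-free condition (0.00005% Triton X-100) in acetate buffer pH 5.5 with DTT. 1.5 nM enzyme and compound were pre-mixed 15 min, then 2 uM Z-FR-AMC substrate added; reaction progress from fluorescence change between first and third reads (60 s).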
NS1 inh – influenza NS1 inhibition | S. cerevisiae slowed by influenza A NS1, growth recovery by OD600 | Potency, µM (titrated, usually from 46.1 µM), without a hit: at the top dose activity, positive = more growth | hit rate 0.4% among 270,000 | AID 2326; active means well fitted rising curve with a large enough effect; inconclusive means small, poorly fitted or top-dose-only effect; inactive means no such curve, though single readings can be large or run the other way; note: nearly all actives have a fitted effect of over 50% in size
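OD600 was taken as the measure of yeast growth restored by compound in an NS1-expressing S. cerevisiae strain. Cells had been washed out of glucose medium and diluted 1:100 into galactose -URA medium, pH 6.0.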
2A StopGo – lowers the luciferase signal of an FMDV 2A StopGo reporter. human cells with a luciferase reporter of 2A StopGo recoding; control for the full effect not named in the record. Potency, µM (top dose mostly 57.9 µM), for the others: at the top dose signal change, negative = less light. hit rate 1.2% among 410,000. AID 1159524; active = well fitted falling curve with a large enough effect; inconclusive = small, poorly fitted or top-dose-only effect; inactive = no such curve, though single readings can be large or run the other way; tested in HEK293T cells; note: % is set by controls: 0 for no effect and ±100 for the full control effect; nearly all actives have a fitted effect of over 45% in size; luciferase light after 4 h
RE007 growth inh – less growth of the S. pombe RE007 Vpr strain; S. pombe RE007 Vpr strain, BacTiter-Glo ATP luminescence, 24 h; control for the full effect not named in the record; Potency, µM (highest dose often 92.2 µM), for inactives: at the top dose activity change, negative = less growth; hit rate 0.21% among 360,000; active = well fitted falling curve with a large enough effect; inconclusive = small, poorly fitted or top-dose-only effect; inactive = no such curve, though single readings can be large or run the other way;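 note: % is set by controls: 0 for no effect and ±100 for the full control effect; nearly all actives have a fitted effect of over 50% in size; the assay follows cell death caused by Vpr and the record does not say whether a fall means rescue or toxicity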
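Fission yeast strain RE007, carrying one chromosomally integrated HIV-1 vpr copy, was seeded at OD 0.01 in PMG+AL medium with 23 nL pinned compound. After 24 h at 30 °C and 99% humidity, viability was read by BacTiter-Glo luminescence.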
SARS PLP yeast – inhibitors of SARS-CoV papain-like protease in yeast; Potency, µM (top dose mostly 32.9 µM), without a hit: top-dose activity, positive = growth rescue; hit rate 0.19% among 330,000; S. cerevisiae expressing SARS-CoV PLpro, growth rescue; control for the full effect not named in the record; active means well fitted rising curve with a large enough effect; inconclusive means small, poorly fitted or top-dose-only effect; inactive means no such curve, though single readings can be large or run the other way; note: 0% is about no effect; nearly all actives have a fitted effect of over 55% in size; growth read by luminescence after 48 h
Marburg entry inh – inhibitors of Marburg virus binding or cell entry. Marburg virus pseudotyped entry inhibition, cell reporter; control for the full effect not named in the record; about a third of the inactives were read at about 46 µM. Potency, µM (highest dose often 37.8 µM), inactives show at the top dose activity change, negative = inhibition, hits mostly inhibitors. hit rate 1.8% among 300,000. AID 540276; active = well fitted inhibition curve with a large enough effect; inconclusive = small, poorly fitted or top-dose-only effect, or effect the other way; inactive = flat fitted curve, though single readings scatter; tested in HEK293 cells; about a fifth of its hits are not listed in these tables; note: % is set by controls: 0 for no effect and ±100 for the full control effect; luciferase read-out
Cruzain inh Det – inhibitors of Trypanosoma cruzi cruzain with detergent. purified cruzain, Z-FR-AMC fluorescence, 0.01% Triton. Potency, µM, for the others: max response, negative = inhibition, hits mostly inhibitors. hit rate 0.43% among 200,000;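 note: plate controls were neutral wells for no effect and buffer without enzyme for full effect; nearly all actives have a fitted effect of over 40% in size; top concentration of the series not given in the record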
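Steps: dispense cruzain (1.5 nM final) in acetate buffer pH 5.5 with DTT and 0.01% Triton X-100; pin-transfer compounds; incubate 15 min RT; add Z-FR-AMC (2 uM final); read fluorescence every 30 s, using the 60 s intensity change.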
LASV entry inh – Lassa virus entry inhibition; Lassa virus pseudotype entry inhibition, cell reporter; control for the full effect not named in the record; Potency, µM (highest dose often 37.9 µM), inactives show at the highest dose activity change, negative = inhibition, hits mostly inhibitors; hit rate 1.2% among 300,000; AID 540256; active means well fitted inhibition curve with a large enough effect; inconclusive means small, poorly fitted or top-dose-only effect, or effect the other way; inactive means flat fitted curve, though single readings scatter; tested in HEK293 cells; note: % is set by controls: 0 for no effect and ±100 for the full control effect; nearly all actives have a fitted effect of over 50% in size; luciferase read-out
Active calls of the source: *; ? = inconclusive; · = not tested or not shown; & = joins results of further samples; [ ] = another dose, or the depositor's remark. Unless noted, calls come from the whole dose curve; as a rule, active = well fitted curve in the direction sought with a large enough effect; inconclusive = small, poorly fitted or top-dose-only effect, or another doubt; inactive = no such curve, though single readings can be large; an effect the other way counts as inactive or inconclusive. Potency is the fitted concentration of half-maximal effect.

SMILES | Cruzain inh noDet | NS1 inh | 2A StopGo | RE007 growth inh | SARS PLP yeast | Marburg entry inh | Cruzain inh Det | LASV entry inh
Cc1ccccc1CSCc1nc2ccccc2[nH]1 | 1% | -2% | 5% | -6% | -64% | ? | 2.9% | ?
CCN1CCN(CCOc2ccccc2OCc2ccccc2)CC1 | · | -2% | 5% | -1% | 0% | ? | · | -17%
COc1ccc([N+](=O)[O-])cc1NC(=O)C(C)Sc1ccc(C)cc1 (stereo not given) | -22% | -10% | -15% | 15% | 6% | 6% | -6.0% | 2%
COc1ccccc1CCN1CCCC(CN(C)Cc2ccc(OCCO)cc2)C1 (stereo not given) | · | 3% | -16% | -8% | 6% | · | · | ·
O=C(OCc1ccc([N+](=O)[O-])cc1)c1ccccn1 | · | -2% | -6% | 12% | -2% | 7%[46.1 µM] | · | 3%
COc1ccccc1N1CCN(Cc2ccc(OC)c(OC)c2OC)CC1 | -4% | -1% | -12% | 11%[3.69 µM] | 6% | ? | -0.1% | -11%
Cc1c(OCc2ccc(C(=O)O)cc2)ccc2c(-c3ccccc3)cc(=O)oc12 | · | 5% | -13% | 7% | 0% | · | · | ·
O=C(Cc1ccc(S(=O)(=O)N2CCCC2)s1)N1CCN(c2ccccc2)CC1 | · | · | 12% | 6% | 1% | 5%[46.1 µM] | · | -2%
Cc1ccc(C)c(N2CCN(c3ccc([N+](=O)[O-])cn3)CC2)c1 | · | 3% | ? | -3% | -2% | · | · | ·
CCOC(=O)Cc1csc(NC(=O)COc2cc(C)cc(C)c2)n1 | · | 1% | -9% | -22% | -1% | · | · | ·
CC(=O)c1ccc(N2CCN(C(=O)c3cc4c(C)nc5ccccc5c4o3)CC2)cc1 | · | 7% | ? | 4% | 2% | · | · | ·
CCCCCC(=O)N/N=C/c1cc(Br)c(O)c(OC)c1 | -16% | -11% | ? | 18% | 4% | 3% | -6.7% | 4%
Cc1cccc2nc(-c3ccco3)c(Nc3ccc4c(c3)OCO4)n12 | -20% | · | -16%&-29% | -12% | -8% | ? | -16% | ?
CCOC(=O)Nc1nc(C)c(C(=O)N(C)C)s1 | -1% | -3% | -12% | -8% | 1% | ? | 2.3% | 4%
Cc1cc(NC(=O)COc2ccc(Cl)cc2Cl)n(-c2ccccc2)n1 | ? | -10% | ? | -7% | -4% | ? | -5.0% | -15%
CCOCCCn1c(=NC(=O)c2cccs2)c(C#N)cc2c(=O)n3cccc(C)c3nc21 | · | 1% | -21% | 5% | 0% | · | · | ·
O=CN1CCN(CC(O)Cn2c3ccccc3c3ccccc32)CC1 (stereo not given) | · | 6% | -6% | -23% | 2% | · | · | ·
CCn1c(=O)c2c(nc3n2CCCN3CCc2ccccc2)n(C)c1=O | -6% | -1% | ? | 1% | 9% | 10% | 0.3% | -9%
O=C(CN1C(=O)NC2(CCCC2)C1=O)NCc1ccc(F)cc1 | · | · | -11% | -5% | 0% | -12% | · | -4%
Fc1ccc(/C=C\c2nccc3c2[nH]c2ccccc23)cc1 | · | -4% | 6% | -12% | -5% | ? | · | -28%[46.1 µM]
COc1ccc(C(=O)NCC(=O)Nc2ccccc2)cc1OC | -4% | 6% | -21% | -1% | 8% | -2% | 2.8% | -2%
C=CCNC(=O)N1CCCC(C(=O)c2cccc(OC(C)C)c2)C1 (stereo not given) | · | -13% | 23% | -19% | -3% | ? | · | ?
CNC(=O)NC(=O)Cn1nc2n(c1=O)-c1ccccc1SC2 | · | -2% | 4% | -10% | 1% | ? | · | ?
CSCCC(NC(=O)c1ccco1)C(=O)OCC(=O)Nc1ncc(Cl)c(C)c1Cl (stereo not given) | ? | 15% | 1% | -1% | 0% | -28% | -28% | 2%
O=C(NC1CCCCC1)c1nn2c(C(F)(F)F)cc(-c3ccco3)nc2c1Br | ? | 1% | 0% | 9% | 6% | 22% | -1.0% | 10%
COc1ccc(/C=N/Nc2cc(N3CCOCC3)nc(C)n2)c(OC)c1 | · | -28% | ? | -5% | -8% | · | · | ·
O=C(Nc1ccc2c(c1)OCO2)C1CCN(C(=O)c2ccc([N+](=O)[O-])cc2)CC1 | · | 5% | 29% | 5% | -1% | · | · | ·
COCCCNC(=O)CNC(=S)N(Cc1ccccc1F)C1CCCCC1 | ? | 5% | 14% | 3% | 5% | -5% | 4.7% | 4%
COc1cccc(C(=O)NCCCc2ccccc2)c1OC | · | · | 20% | -2% | · | 22%[46.1 µM] | · | 4%
Cc1nc2ccccc2c(=O)n1NCc1cccs1 | -8% | -18% | · | 4% | -6% | 10% | -3.1% | ?
CC(C)=NOc1nc(N2CCOCC2)nc(N2CCOCC2)n1 | · | 2% | -11% | 4% | -1% | ? | · | ?
Cc1ccc(S(=O)(=O)NC(C)(C)CN2CCc3ccccc3C2)cc1 | · | -1% | -13% | 3% | -2% | · | · | ·
Cc1scc(C(=O)NNC(=S)NCc2ccccc2)c1C | 4% | 11% | 27% | 2% | -13% | 27% | -0.9% | 10%
O=C(CN1CCOCC1)Nc1ccccc1F | · | 0% | -6% | -18% | -2% | 6% | · | -18%
COc1ccc(Br)cc1C1CC(=O)N2CN(C)CSC2=C1C#N (stereo not given) | 2% | -42% | -24% | -12% | 0% | -4% | -6.1% | ·
Cc1ccc2nc(SCC(=O)N3CCC(Cc4ccccc4)CC3)nc(=O)n2c1 | · | · | ? | 2% | 5% | ? | · | -4%
Cc1ccc(OCC(=O)NNC(=O)C(=O)NC(C)(C)C)cc1 | 2% | 4% | -3% | 7% | 13% | -2% | -1.1% | 4%
Cc1ccc2oc3c(c(=O)c2c1)C(c1ccc(O)cc1)N(CCCN(C)C)C3=O (stereo not given) | 6% | · | 14% | · | · | 29%[46.1 µM] | 0.1% | 23%[46.1 µM]
CC(=O)N1CCOc2ccc(S(=O)(=O)NCC3CCC(C(=O)NCCC(C)C)CC3)cc21 (stereo not given) | · | -8% | -15% | -5% | 2% | 27%[46.1 µM] | · | -8%[46.1 µM]
COc1ccc(NC(=O)CN(C)CC(=O)Nc2cccc(F)c2)cc1S(=O)(=O)N1CCCCC1 | · | · | -6% | 6% | · | -5% | · | 5%

Fetched by structure from the list above:
SMILES | Cruzain inh noDet | NS1 inh | 2A StopGo | RE007 growth inh | SARS PLP yeast | Marburg entry inh | Cruzain inh Det | LASV entry inh
COc1cccc(C(=O)NCCCc2ccccc2)c1OC | · | · | 20% | -2% | · | 22%[46.1 µM] | · | 4%
Cc1ccc(S(=O)(=O)NC(C)(C)CN2CCc3ccccc3C2)cc1 | · | -1% | -13% | 3% | -2% | · | · | ·
Cc1ccc2oc3c(c(=O)c2c1)C(c1ccc(O)cc1)N(CCCN(C)C)C3=O (stereo not given) | 6% | · | 14% | · | · | 29%[46.1 µM] | 0.1% | 23%[46.1 µM]

Remaining list, next part
SMILES | Cruzain inh noDet | NS1 inh | 2A StopGo | RE007 growth inh | SARS PLP yeast | Marburg entry inh | Cruzain inh Det | LASV entry inh
Fc1ccccc1CSc1ccc(-c2ccco2)nn1 | · | · | 25% | 3% | -3% | ? | · | 16%
COc1ccc2c(c1OC)C[N+]1([O-])CCc3cc4c(cc3C1C2)OCO4 (stereo not given) | · | -1% | -17% | 11% | 3% | · | · | ·
Cc1ccc(-n2c(=O)c3c4c(sc3n(Cc3ccccc3C)c2=O)CCC4)cc1C | -7% | · | -16% | · | · | -9%[46.1 µM] | -1.6% | 21%[46.1 µM]
Cc1ccc(Cl)cc1N1CCN(CCCNC(=O)C2COc3ccccc3C2)CC1 (stereo not given) | 17% | · | ? | · | · | · | -0.6% | 10%[46.1 µM]
CCOC(=O)c1ccc(CN(Cc2ccc(F)cc2)S(=O)(=O)c2ccc(F)cc2)cc1 | -21% | · | -13% | · | · | · | -0.1% | -16%[46.1 µM]
CC(=O)C1=C(O)C(=O)N(c2cccc(C(=O)O)c2)C1c1ccc(F)cc1 (stereo not given) | -2% | ? | -10% | 3% | 22% | 25% | -4.9% | 19%
O=C(c1cc2ccccc2cc1O)N1CCN(c2ccccn2)CC1 | · | -8% | -22% | -4% | 1% | 19%[46.1 µM] | · | -1%[46.1 µM]
c1ccc(C2=Nc3ccccc3NC(c3ccccc3)C2)cc1 (stereo not given) | -1% | -49% | 45%[activator] | ? | -9% | 10% | -5.6% | 29%
Cc1ccc(C(C)(C)C)c(OCCN2CCCC2)c1 | 7% | -6% | 8% | 0% | -4% | ? | -0.2% | ?
CCCSCCCNC(=O)c1cc2n(n1)CCCN(Cc1ccc(C)cc1)C2=O | 26% | · | ? | · | · | · | 0.3% | -6%[46.1 µM]
COc1ccccc1-c1noc(CSc2nc(N)cc(=O)[nH]2)n1 | · | 3% | -15% | 4% | 0% | -10%[46.1 µM] | · | 3%
CCN(C(=O)CSc1nc2ccc(OC)cc2[nH]1)c1c(N)n(Cc2ccccc2)c(=O)[nH]c1=O | · | · | -13% | -7% | -4% | -1% | · | 3%
Cc1nc2sc(C(c3ccccc3)N3CCN(CCO)CC3)c(O)n2n1 (stereo not given) | · | 3% | -9% | -1% | 0% | · | · | ·
CCc1nc2oc(C(=O)c3ccccc3)c(N)c2c2c1COC(C)(C)C2 | 9% | 4% | -18% | 0% | -7% | 2% | -7.8% | -2%
COc1ccc(CCC(=O)NNC(=S)Nc2cccc(C(C)=O)c2)cc1 | · | · | 1% | 9% | 1% | 8%[46.1 µM] | · | ?

An excerpt of these results, with each value named.
CCc1nc2oc(C(=O)c3ccccc3)c(N)c2c2c1COC(C)(C)C2
  Cruzain inh noDet: 9%
  NS1 inh: 4%
  2A StopGo: -18%
  RE007 growth inh: 0%
  SARS PLP yeast: -7%
  Marburg entry inh: 2%
  Cruzain inh Det: -7.8%
  LASV entry inh: -2%
COc1ccc(CCC(=O)NNC(=S)Nc2cccc(C(C)=O)c2)cc1
  Cruzain inh noDet: ·
  NS1 inh: ·
  2A StopGo: 1%
  RE007 growth inh: 9%
  SARS PLP yeast: 1%
  Marburg entry inh: 8%[46.1 µM]
  Cruzain inh Det: ·
  LASV entry inh: ?

High-throughput results as filed in PubChem.
